MgrA-DNA mod: S. aureus MgrA-DNA binding modulation. fluorescence polarization. inhibition, %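 (about 10 µg/mL by stock and volumes)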. hit rate 0.13% among 84,000;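 active means above 50% in either of two replicates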;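 further: 0% = protein plus DNA without compound and 100% = DNA alone without protein; higher means less MgrA bound to DNA so lower polarization; one replicate is shown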
Sa helicase inh: S. aureus DNA helicase inhibition; purified S. aureus helicase, fluorescence unwinding assay; about half of the hits fall short of the stated cut; AID 485395; inhibition, %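 (tested at about 80 µM)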; hit rate 0.05% among 120,000;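 active means both duplicates at 50% or more, or one of them with a favoured structure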;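 further: 0% = mean of negative control wells and 100% = mean of positive control wells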
Numbers without * were called inactive; / = no result given. Some of the compounds tested, so the mix of outcomes need not match the whole.

SMILES | MgrA-DNA mod | Sa helicase inh
Cc1ccc(C(=O)COC(=O)c2ccc(-n3cccn3)cc2)s1 | / | -6.0
Cc1cccc(CN2C(=O)/C(=C\c3ccc(C(=O)NCc4cccnc4)cc3)Sc3ccccc32)c1 | -0.6 | 12.0
CCCc1[nH]n(-c2ccc(F)cc2)c(=O)c1C(C)=Nc1ccc(S(N)(=O)=O)cc1 | -1.4 | 18.0
O=C(OCc1nc2ccccc2s1)c1cc(Cl)ccc1Cl | / | 19.0
COc1ccccc1C(=O)N=C1NC(=O)CC2C(=O)NCCN12 (stereo unspecified) | -2.2 | 19.0
O=C(Nc1ccc(-c2nc3ccccc3o2)cc1)c1ccc(Oc2ccccc2)cc1 | -0.1 | 0.0
Cc1ccc2c(c1)/C(=C/c1ccncc1)c1cc3ccccc3nc1-2 | -3.0 | 15.0
C=CCNC(=O)c1cc(-c2ccc(C)c(C)c2)nc2ccccc12 | 0.8 | 13.0
CNC(=O)Sc1c(-c2ccc(Cl)cc2)nn(C(=O)NC)c1SC | 7.8 | /
O=C(Cn1c2c(c(=O)n3ncnc13)CCC2)N/N=C/c1cccnc1 | / | 3.0
Cc1cc2ncn(C(=O)N3CCCCC3)c2cc1C | 1.1 | 2.0
Cc1nc(NCc2ccccn2)c2ccccc2n1 | -1.2 | -17.0
Cc1ccnc(SCc2cc(=O)c(OC(=O)c3ccco3)co2)n1 | / | 7.0
CN(C)c1ccc(/C=N/N2C(=O)c3ccccc3C2=O)cc1 | / | -4.0
O=C(NC(=S)Nc1cccc2c(O)cccc12)C1CC1 | / | 15.0
COc1cc(N)c(Cc2nccc3cc(OC)c(OC)cc23)cc1OC | 16.8 | 17.0
COc1cc(C2C(C(=O)OCCOc3ccccc3)=C(C)NC3=C2C(=O)CC(C)(C)C3)cc(OC)c1O (stereo unspecified) | 0.7 | /
CC(=O)c1c(CC(=O)O)[nH]n(-c2nc3ccccc3s2)c1=O | 20.9 | 8.0
O=C1c2ccccc2CN1CCSC(=S)N1CCCC1 | 0.3 | /
CCOc1cc(S(=O)(=O)NCCc2ccc(OC)c(OC)c2)c(OCC)cc1-n1cnnn1 | 1.9 | -3.0
O=C(O)CCC(=O)Nc1ccccc1C(=O)NC1CC1 | / | -3.0
O=c1[nH]c2ccc(NCc3ccc(OCc4ccc(Cl)cc4)cc3)cc2[nH]1 | / | 15.0
CC(CN=CC1=C(O)CC(C)(C)CC1=O)N=CC1=C(O)CC(C)(C)CC1=O (stereo unspecified) | 2.8 | -1.0
C=CCN(c1ccccc1)c1nc(C(=O)OCC)nc2ccccc12 | / | 7.0
Cc1cn2c(nc1=O)O[C@H]1C[C@H]2O[C@@H]1COC(=O)c1ccccc1 | / | -33.0
O=C(/C=N/O)Nc1ccc(Cl)cc1Cl | 1.1 | /
O=C(NC1CCCC1)C1CCC(Cn2c(=O)c3ccccc3n(Cc3cc(=O)n4ccccc4n3)c2=O)CC1 (stereo unspecified) | / | -31.0
NC(=O)/C=C/c1cccc(C(F)(F)F)c1 | -3.0 | 4.0
Cc1coc(NC(=O)CSc2nc(-c3ccc(Cl)cc3)cc(C(F)(F)F)c2C#N)n1 | 1.5 | 6.0
O=C(COc1ccccc1F)Nc1ncnc2nc[nH]c12 | / | 13.0
CCN=C(Nc1ccc(Cl)cc1)c1cccnc1 | 0.3 | /
O=C(NCCCN1CCOCC1)c1ccccc1 | -1.1 | 6.0
Cc1ccc(CNC(=O)NCc2cccc(CNC(=O)NCc3ccc(C)n3C)c2)n1C | / | -3.0
COCc1cc(=O)[nH]c(NC(C)=O)n1 | -2.3 | /
Fc1ccc(C(c2nnnn2C2CCCC2)N2CCc3ccccc32)cc1 (stereo unspecified) | -5.5 | 8.0
COC(=O)c1ccc2c(c1)N=C(C)c1cc(C)ccc1S2 | -1.1 | 12.0
N#CC(C(=O)c1cc(F)c(F)cc1Cl)c1ccccn1 (stereo unspecified) | -0.2 | -25.0
O=C1c2ccccc2S(=O)(=O)N1Cc1ccc(-c2csnn2)cc1 | -3.2 | /
COC(=O)COC(=O)Cc1c(C)n(C(=O)c2ccc(Cl)cc2)c2ccc(OC)cc12 | / | 5.0
O=C(CSc1nccn1-c1ccccc1)Nc1ccccc1 | / | 17.0
Nc1n[nH]c(Cc2ccccc2)c1-c1ccccc1 | 4.2 | 8.0
O=C(O)COc1cc(Cl)ccc1O | -13.1 | -23.0
O=C(O)c1cc(NC(=O)C2CC2)cc(NC(=O)C2CC2)c1 | -5.6 | 22.0
CN(C(=O)CSc1nc2ccccc2c(=O)n1Cc1ccccc1)c1ccccc1 | / | 10.0
CCOC(=O)/C(C#N)=c1/s/c(=C2\C=Cc3ccccc3N2CC)c(=O)n1CC | -1.8 | 17.0
Cc1ccc2cc(NC(=O)c3ccccc3C)ccc2n1 | -2.2 | /
Cc1nc2c(c(-c3ccccc3)c1C#N)C(=O)c1ccccc1-2 | 0.9 | 11.0
COc1ccc(CCNC(=O)CSc2cn(C)c3ccccc23)cc1OC | / | 7.0
N#Cc1c(Nc2ccccc2)c(/C=N/N)c[nH]c1=O | / | -12.0
CCc1c(O)nc(SCCN(CC)CC)n(-c2ccccc2)c1=O | / | 8.0
Cc1ccc2oc(=O)c3cnn(CC(=O)Nc4ccccc4N4CCN(C)CC4)c3c2c1 | / | -1.0
CCOC(=O)c1c(NC(=O)c2ccc(Cl)cc2)sc(C(=O)Nc2ccccc2C(F)(F)F)c1C | 1.5 | /
COc1cccc(C(=O)Nc2cccc(C)n2)c1 | -2.2 | 5.0
O=C1/C(=C/c2ccc3c(c2)OCO3)COc2ccccc21 | / | 14.0
Cc1nc2ccccc2n1C(=O)/C=C\C(=O)O | / | -11.0
CC(C)OC(=O)CSc1nnc(-c2cnccn2)n1-c1ccccc1 | -3.4 | 8.0
CCn1c(SCC(=O)Nc2ccc3c(c2)OCO3)nc2ccc(Br)cc2c1=O | / | 10.0
O=C(c1ccc(F)cc1)N1C=CC(C(F)(F)F)=NCC1 | 1.3 | /
Cc1c(C(=O)O)nnn1-c1ccccc1Oc1ccc(Cl)cc1Cl | 0.3 | /
Nc1ccc(S(=O)C(F)(F)F)cc1 (stereo unspecified) | 0.7 | -24.0

Part of the list above in order of length of the SMILES, falling.
SMILES | MgrA-DNA mod | Sa helicase inh
CCn1c(SCC(=O)Nc2ccc3c(c2)OCO3)nc2ccc(Br)cc2c1=O | / | 10.0
Cc1c(C(=O)O)nnn1-c1ccccc1Oc1ccc(Cl)cc1Cl | 0.3 | /
CCc1c(O)nc(SCCN(CC)CC)n(-c2ccccc2)c1=O | / | 8.0
O=C1/C(=C/c2ccc3c(c2)OCO3)COc2ccccc21 | / | 14.0
Cc1ccc2cc(NC(=O)c3ccccc3C)ccc2n1 | -2.2 | /

Continuation.
SMILES | MgrA-DNA mod | Sa helicase inh
FC(F)(F)c1ccc2[nH]c(=S)[nH]c2c1 | 1.2 | /
CC1CCCCC1Nc1ncnc2c1oc1ccccc12 (stereo unspecified) | / | 8.0
CC(=O)c1ccc(NS(=O)(=O)c2ccc(Cl)c(C(=O)Nc3ccc(Br)cc3)c2)cc1 | 0.3 | /
CC1CCCCC1NC(=O)CN(C)S(=O)(=O)c1cccc2cccnc12 (stereo unspecified) | 0.7 | -6.0
COc1ccc(-c2ccnc(-c3ccncc3)n2)cc1 | -2.6 | /
c1ccc2c(CN3CCCNCC3)cccc2c1 | -2.6 | /
CCOC(=O)c1c(-c2ccccc2Cl)csc1NC(=O)CC | -0.9 | -15.0
CCc1ccc(C(c2c(C)[nH][nH]c2=O)C(C#N)C#N)cc1 (stereo unspecified) | 4.4 | 3.0
CN(Cc1ccc(Cl)s1)C(=O)CSc1nnc2n1CCCCC2 | / | 3.0
Clc1ccc(-c2nnc3n2CCCC3)cc1Cl | 0.4 | /
O=C(c1ccccc1)N1CCCCC1 | 3.5 | -5.0
CC(=O)Nc1ccc(S(=O)(=O)Nc2c(C)n(C)n(-c3ccccc3)c2=O)cc1 | 3.4 | /
CCC(C)c1ccc(NC(=O)NC(C)(C)C)cc1 (stereo unspecified) | 1.7 | 7.0
O=C(Nc1ccccc1F)c1ccc(S(=O)(=O)N2CCCC2)cc1 | / | -2.0
O=C(O)c1cc2ccc(O)cc2oc1=O | / | -24.0
NCc1c(Cl)cc(C(F)(F)F)cc1Cl | -0.8 | /
COc1ccc(C2=NN(S(=O)(=O)c3ccccc3)C(c3cccc([N+](=O)[O-])c3)C2)cc1 (stereo unspecified) | -0.1 | /
COc1ccc(-c2nc3c(=O)n(C)c(=O)nc-3n(C)n2)cc1OC | / | -1.0
O=C(CN1CCN(c2ccc(C(F)(F)F)cn2)CC1)Nc1ccc(OC(F)(F)F)cc1 | -0.7 | /
Cc1cc(C(O)(C(F)(F)F)C(F)(F)F)cc(C)c1O | -1.1 | -6.0
CN1C2CCC1CC(N(CCc1c[nH]c3ccccc13)C(=O)c1ccc(F)cc1)C2 (stereo unspecified) | 0.4 | /
O=C(O)C1Sc2c(sc(=O)n2Cc2ccccc2)C2c3ccccc3OC(=O)C12 (stereo unspecified) | 2.6 | 8.0
CCNc1nc(NC(N)=S)nc(NC(C)(C)C)n1 | 6.2 | 4.0
COC(=O)c1c(C)cc(=O)n2c1[nH]c1ccccc12 | -0.4 | -6.0
Cc1c(N)cccc1-n1c(C)ccc1C | -0.9 | 10.0
CCn1c(=O)cc(SCC(=O)NCCCN2CCN(C)CC2)c2ccccc21 | / | -26.0
Cc1ccc(S(=O)(=O)NC(=O)NCCSCc2ccco2)cc1 | 0.3 | /
O=C1Cc2cc(C(=O)Cn3nc(C(=O)O)c4ccccc4c3=O)ccc2N1 | / | -12.0
O=C1CCCc2c1cc(C(=O)Nc1ccccc1)c(=O)n2-c1ccccc1 | 4.2 | 6.0
CCCCc1oc2ccccc2c1CNC | / | -7.0
C=CCn1nc2n(c1=O)-c1ccccc1SC2 | -2.2 | /
O=C(CCN1C(=O)C2CC=CCC2C1=O)Nc1nnc(C2CC2)s1 (stereo unspecified) | / | 6.0
O=C(Nc1ccc2c(c1)OCO2)C12CC3CC(CC(O)(C3)C1)C2 | / | 1.0
CCOC(=O)CC1(O)CSc2nc3sc4c(c3c(=O)n21)CCCC4 (stereo unspecified) | / | -3.0
Cc1ccc(N(C(=O)c2ccc(Br)o2)C(=O)N2CCCCC2)cc1 | / | 13.0
O=C(OCN1C(=O)c2ccccc2C1=O)c1cc[n+]([O-])cc1 | / | 2.0
NC(=Nc1cc(Cl)ccc1Cl)SCc1ccccc1 | -2.3 | /
Cc1cc(Nc2ccccc2)c2ccccc2n1 | 1.4 | /
FC(F)(F)c1cccc(Cc2c[nH]c(=S)s2)c1 | / | -16.0
CC1CCCCC1NC(=O)CSC1=Nc2ccccc2C2CC=NN12 (stereo unspecified) | / | 7.0
N#CCC(=O)c1ccco1 | / | 9.0
Cn1ccsc1=NC(=O)Cn1cnc2ccccc2c1=O | / | 6.0
O/N=C/c1cccc(Oc2ccccc2)c1 | / | 0.0
O=C(Nc1cccn2ncnc12)c1cccc(C(F)(F)F)c1 | -0.6 | /
CCCCN(Cc1cc2cc(OC)ccc2[nH]c1=O)C(=O)c1cccc(Cl)c1 | -0.2 | -5.0
Cc1oc2c(c1C(=O)NCCCN1CCOCC1)C(=O)c1ccccc1C2=O | / | 2.0
C=C(C1CC1)N(C(=O)c1ccc(F)cc1)c1ccc(OC)cc1 | 0.1 | /
CCC(=O)N1c2ccccc2N=C(c2ccccc2)CC1c1ccccc1 (stereo unspecified) | -1.7 | /
CSC1=Nc2ccccc2CN1c1ccc(Br)cc1 | -6.0 | 12.0
Cn1c(=O)c2cc(C(=O)NC3CC3)sc2c2ccccc21 | / | -24.0
CC1(C)CC(NC(=O)c2cccc3ccccc23)CC(C)(C)N1 | -3.1 | 18.0
Cc1csc(CC(N)=S)n1 | / | 11.0
CN1CC(=O)N(CC(=O)c2ccc(Cl)s2)C1=O | / | -9.0
CCCCSc1nnc2c(n1)OC(C)(CC)Nc1ccccc1-2 (stereo unspecified) | -0.4 | /
COc1ccc(C(=O)NCCc2cc3ccc(C)cc3[nH]c2=O)c(OC)c1 | / | -17.0
COc1ccc(OCC(O)CNC(=O)Nc2cc(F)ccc2C)cc1 (stereo unspecified) | / | 16.0
CC1CCC(NC(=O)Cn2c3ccccc3c3cn[nH]c(=O)c32)CC1 (stereo unspecified) | -3.0 | -3.0
CC(NC(=O)Cn1c(=O)oc2cc(S(=O)(=O)N(C)C)ccc21)c1ccccc1 (stereo unspecified) | / | 34.0
CCOC(=O)c1cc2cccc(Cl)c2[nH]1 | / | -32.0
CC(C)c1cc(C(C)C)c(S(=O)(=O)N2CCCC2)c(C(C)C)c1 | 1.6 | 19.0

More records:
SMILES | MgrA-DNA mod | Sa helicase inh
COc1ccccc1-c1c(C)nn2c(NCCN3CCN(Cc4ccccc4)CC3)cc(C)nc12 | / | 19.0
Cc1ccc(NC(=O)CSc2nnc(NC(=O)c3cccs3)s2)cc1 | / | 2.0
O=C1C(=Cc2cn[nH]c2-c2ccccc2)C(=O)c2ccccc21 | 5.3 | 11.0
Oc1ccc(C(CCl)n2cncn2)cc1 (stereo unspecified) | / | -21.0
O=C(Oc1c(CN2CCOCC2)cc(Cl)c2cccnc12)c1ccccc1 | / | 12.0
O=C(Nc1nc(-c2cc([N+](=O)[O-])cs2)cs1)c1cc(-c2cccs2)nc2ccccc12 | -2.2 | /
COc1ccccc1NC(=S)NNC(=O)NNC(=S)Nc1ccccc1OC | -0.5 | /
C=C(C)CC1N(CCc2ccccc2)C(=O)C2C(C(=O)O)C3C=CC21O3 (stereo unspecified) | 2.2 | 3.0
COc1cccc(=O)c2c(C)oc(C)c12 | 43.3* | -67.0

3 compounds from above, arranged by the value under MgrA-DNA mod, descending:
SMILES | MgrA-DNA mod | Sa helicase inh
COc1cccc(=O)c2c(C)oc(C)c12 | 43.3* | -67.0
C=C(C)CC1N(CCc2ccccc2)C(=O)C2C(C(=O)O)C3C=CC21O3 (stereo unspecified) | 2.2 | 3.0
COc1ccccc1NC(=S)NNC(=O)NNC(=S)Nc1ccccc1OC | -0.5 | /
